StopGo FLuc: Primary qHTS Assay for Foot and Mouth Disease Virus Antivirals against NCGC Sytravon and CBC Compound Libraries: Firefly Luciferase Signal; Potency, µM (titrated, usually from 57.5 µM), for inactives: top-dose signal change, negative = less light; HEK cells with a luciferase reporter of 2A StopGo recoding; 120,000 tested, 0.23% active; active = well fitted falling curve with a large enough effect; inconclusive = small, poorly fitted or top-dose-only effect; inactive = no such curve, though single readings can be large or run the other way; also: nearly all actives have a fitted effect of over 60% in size; overnight with compound
2A Renilla: Primary qHTS Assay for Foot and Mouth Disease Virus Antivirals against NCGC Sytravon and CBC Compound Libraries: Renilla Luciferase Signal. HEK cells with a luciferase reporter of 2A StopGo recoding. Potency, µM (doses to about 57.5 µM), inactives show top-dose signal change, negative = less light. 120,000 tested, 0.32% active. AID 1745857, 2022; active means well fitted falling curve with a large enough effect; inconclusive means small, poorly fitted or top-dose-only effect; inactive means no such curve, though single readings can be large or run the other way; also: nearly all actives have a fitted effect of over 55% in size; overnight with compound
Numbers without * were called inactive; ? = inconclusive; & = joins results of further samples; [ ] = another dose, or the depositor's remark. % is scaled to controls: 0 for no effect and ±100 for the full control effect; potency is read from the fitted curve at half-maximal effect. Rows were taken by chance; 0.55% or so of the library scored in one or more.

canonical_smiles | 2A Renilla | StopGo FLuc
O=C(Nc1ccc(F)cc1)C1=C(N2CCOCC2)c2ccccc2S1(=O)=O | -20.5% | 133.8%[activator]
CC(OC(=O)c1ccc2c(c1)NC(=O)CS2)C(N)=O (stereo not given) | 9.5%[1.06 µM] | 4.0%
CCCNc1c(NC(=O)c2ccc(Cl)cc2)c(=O)oc2ccccc12 | -6.2% | -10.9%
COc1cccc(OC)c1C(=O)Nc1nnc(C)s1 | -5.2% | -6.1%
O=C(NCCc1ccc(Cl)cc1)Nc1ccc(Cl)cc1F | -3.8% | 33.5%[activator]
COc1ccc(S(=O)(=O)N(CC(=O)Nc2ccc3c(c2)OCO3)c2ccc(C)cc2)cc1 | 237.2%[activator] | 4.8%
CCOP(=O)(OCC)c1nc(-c2ccco2)oc1NCc1ccc(F)cc1 | 127.9%[activator] | 3.4%
CN(C)S(=O)(=O)N(CC(=O)NCCSc1ccc(Cl)cc1)c1ccccc1 | 40.7%[activator] | 8.8%
COc1ccc(C2=CC(c3ccc(F)cc3)n3ncc(C(=O)Nc4ccc(C)cc4)c3N2)cc1 (stereo not given) | -14.3% | -23.2%
CCc1cccc(C)c1NC(=O)C1=C(C)C(=O)OC12CCC(C)CC2 (stereo not given) | 0.0% | 0.4%
COc1ccccc1NC(=O)c1cc2ccc(O)cc2oc1=O | 2.3% | 154.0%[activator]
COc1ccc(NC(=O)c2ccc3c(c2)CCN3S(=O)(=O)c2ccccc2)cc1 | 78.5%[activator] | ?
CCc1ccccc1NC(=O)N1CC(C)Sc2ccccc21 (stereo not given) | -7.9% | -8.5%
CC(=O)c1ccc(NC(=O)Cn2nc(-c3ccc(C)cc3)c3c(c2=O)CCCC3)cc1 | -11.8% | -3.4%
COc1ccc(-c2nnc(SCC(=O)Nc3c(C)cccc3C)nc2-c2ccc(OC)cc2)cc1 | -3.7% | 15.4%
COC(=O)c1cc(Br)ccc1NC(=O)c1ccc(OC)cc1 | 1.9% | 12.3%
CCCCNC(=O)c1ccc(N)cc1 | 3.3% | 38.4%[activator]
CCOC(=O)C1=C(O)c2ccccc2C(=O)/C1=C\c1ccc(C)cc1 | ? | -28.1%
COc1cc(OC)c(NC(=O)c2ccc3nc(C(C)C)oc3c2)cc1Cl | -2.6% | -7.4%
Cc1ccc2oc(C(=O)N(Cc3ccccc3F)C3CCS(=O)(=O)C3)c(C)c2c1 (stereo not given) | 0.0% | 0.0%
Cc1cc(SCC(=O)NC(=O)NC(C)(C)C)nc2ccccc12 | -0.6% | 0.4%
Cc1ccc(-c2noc(-c3nnn(-c4cccc(C(F)(F)F)c4)c3N)n2)cc1 | -9.1% | -7.1%
COc1ccccc1Nc1ncc2c(n1)CCN(Cc1ccc(C)s1)C2 | -9.5% | -5.4%
Cc1cc(C)cc(NC(=O)Cn2c(=O)c3c(ncn3Cc3ccccc3)n(Cc3ccccc3)c2=O)c1 | -5.0% | 0.5%
Cc1ccccc1CNC(=O)Cc1csc2ccccc12 | 0.0% | 0.0%
Cc1cc(C(=O)CSc2ccc(Br)cc2)c(C)[nH]1 | 22.1% | 0.0%
Cc1ccccc1-c1nc2c(c(SCc3cccc(Cl)c3)n1)Cc1c(CO)cnc(C)c1O2 | -14.1% | -19.2%
CC1CCC(Nc2ccc3cc(S(=O)(=O)N4CCCC4)ccc3n2)CC1 (stereo not given) | 25.7% | 10.1%
NC(=O)c1ccc(CN2CCC(c3nc4cc(Cl)ccc4o3)CC2)cc1 | 1.9% | 7.2%
Nc1cccc(-c2cc3ccccn3c2)c1 | -0.9% | 4.9%
CCOC(=O)N1CCN(S(=O)(=O)c2cc(Cl)c(C)cc2OCC)CC1 | 95.9%[activator] | 13.2%
COc1ccc(/C=C(/C#N)C(=O)Nc2ccccc2C(=O)O)cc1O | 64.0%[activator] | 393.1%[activator]
Cc1cccc(-c2nc(C)c(CCNC(=O)C(=O)Nc3ccc(C)c(C)c3)s2)c1 | -4.3% | 10.6%
CCc1ccccc1NC(=O)Cn1c(=O)n(Cc2ccc3c(c2)OCO3)c(=O)c2ccc(C(=O)NC3CCCCC3)cc21 | -3.2% | -16.4%
O=c1[nH]cccc1NS(=O)(=O)c1ccccc1Cl | 0.8% | -9.0%
CSC1=N/C(=C\c2cccc(OC(C)=O)c2)C(=O)S1 | 1.1% | -2.9%
C=CCN(CC=C)Cc1ccc(OCc2ccccc2)c(OC)c1 | 2.3% | 59.0%[activator]
CC(C)CCN1CCN(c2nc3c(c(=O)[nH]c(=O)n3C)n2Cc2ccc(Cl)c(Cl)c2)CC1 | -16.0% | -14.8%
CC[N+](CC)(CC)CCCOC(=O)C1(c2ccccc2)CCCC1 | -1.8% | 6.7%
O=C(CCc1ncc(-c2ccccc2)o1)NCc1ccc(C(=O)N2CCCC2)cc1 | 6.8% | 6.7%
Oc1ccc(/C=C/c2nc3ccccc3s2)cc1 | 30.1% | -71.9%
Cc1ccc2nc(Cl)c3cc(C(=O)NC4CCC(C)CC4)sc3c2c1 (stereo not given) | -7.5% | -12.0%
COc1ccc(CNC(=O)c2cc3ccccn3n2)c(OC)c1 | 70.3%[activator] | 98.4%[activator]
O=C(c1sc2cc(F)ccc2c1Cl)N1CCCCC1 | -0.8% | 100.7%[activator]
Cc1ccc(/C=C(\C#N)c2nc3ccccc3o2)cc1 | 27.5% | 120.0%[activator]
O=C(Cn1nc(C(=O)O)c2ccccc2c1=O)Nc1ccccc1 | -8.4% | 5.3%
Cc1nnc(NCc2ccccc2)c2c1nnn2Cc1ccc(F)cc1 | -11.0% | -11.9%
COc1ccc(S(=O)(=O)NCC2CCC(C(=O)NCC(=O)NCc3cccnc3)CC2)cc1 (stereo not given) | -2.0% | 0.6%
COc1ccc2cc3cc(C(=O)NCCc4ccccc4)sc3nc2c1Cl | -5.4% | 68.2%[activator]
O=C(c1ccc2c(Cl)c3c(nc2c1)CCCC3)N1CCN(c2ccccc2F)CC1 | 2.7% | -7.2%
COc1ccc(-c2nn3c(CN4CCOCC4)nnc3s2)c(OC)c1 | -9.0% | 2.1%
COc1cccc(NC(=O)CCc2c(C)c3ccc(C)cc3oc2=O)c1 | -3.8% | 16.1%
Cc1cccc(C(=O)Nc2nnc(S(=O)(=O)N3c4ccccc4CC3C)s2)c1 (stereo not given) | 104.4%[activator] | 123.6%[activator]
O=C(O)CNC(=O)c1cc(-c2ccccc2)nc2ccccc12 | -4.3% | 1.2%
COc1ccc(C2CC(=O)c3cc(-c4nc(-c5cccc([N+](=O)[O-])c5)cs4)c(=O)n(-c4ccc(OC)cc4)c3C2)cc1 (stereo not given) | -13.9% | -12.9%
Cc1ccc2sc(NC(=O)c3ccc4c(c3)OCCO4)nc2c1C | -3.8% | 25.0%
CC(C)c1noc(CN2CCN(C(=O)N3CCCCC3)CC2)n1 | -4.9% | 0.0%
O=C(CN1C=NS(=O)(=O)c2ccccc21)Nc1ccc(F)cc1 | 62.3%[activator] | -8.6%
CCN(CCCNC(=O)c1ccc(Sc2ccc(Cl)cc2)c(NC(C)=O)c1)c1cccc(C)c1 | -1.1% | -12.5%
CCN(C(=O)COC(=O)c1cccc2c(=O)c(C)c(-c3ccccc3)oc12)c1ccccc1 | 17.0% | 12.5%

(more compounds)
canonical_smiles | 2A Renilla | StopGo FLuc
C#CC(C)(CC)NC(=O)Cc1ccccc1 (stereo not given) | 25.5% | 52.3%[activator]
CCOC(=O)C(NC(=O)/C=C/c1ccc(C)c(Cl)c1)C(=O)OCC | 9.7% | 39.8%[activator]
Cc1cccc2c(C(=O)Nc3ccc(C(=O)N(C)C)cc3)cc(C3CC3)nc12 | -32.0% | -20.9%
CC(=O)CC(C)=Nc1ccccc1 | -7.5% | 10.3%
N#C/C(=C/c1ccc(-c2ccccc2C#N)o1)c1nc2ccccc2[nH]1 | 19.9% | 121.0%[activator]
COc1ccc(Cl)cc1NC(=O)CSc1nc(-c2cccs2)cc(C(F)(F)F)n1 | -7.6% | -15.8%
COc1cccc2c1cc1c(=O)n(CC(=O)N3CCN(c4cccc(C(F)(F)F)c4)CC3)nc(C)n12 | -19.3% | 18.6%
CCc1ccc(CNC(=O)CN2CCSc3ccccc32)cc1 | 6.3% | 0.0%
O=C(Nc1cccc2ncccc12)C12CC3CC(CC(C3)C1)C2 | -9.3% | -2.7%
O=C(c1cccc(OC(F)F)c1)n1ccccc1=NC1CCCCC1 | 37.8%[activator] | 31.5%[activator]
COc1ccc(C)cc1N(CC(=O)N1CCC(C)CC1)S(=O)(=O)c1ccc(C)cc1 | 170.2%[activator] | -13.1%
Cc1ccc(-c2nc(CN3CCCC3c3ccsc3)co2)cc1 (stereo not given) | -2.6% | 0.0%
COCCn1c(SCC(=O)c2ccc(OC)cc2)nc2cc(C(=O)NC3CCCC3)ccc2c1=O | -7.9% | -15.2%
Fc1ccc(CCNC(=S)c2cccs2)cc1 | 49.3%[activator] | 127.6%[activator]
COc1ccc(Br)c2c1-c1nc(NC(=O)c3ccccc3F)sc1C2 | -0.8%&2.4% | -1.1%&16.7%
COC(=O)C1(C(=O)OC)CCC(=O)CC1c1ccccc1 (stereo not given) | 2.0% | 3.4%
O=C(ON=C1CCCC1)c1ccc(Br)cc1 | 19.9% | 20.1%
N#Cc1nc(/C=C/c2ccc(F)cc2)oc1NC1CCCCC1 | ? | 47.3%&66.1%[activator]
COc1cccc(/C=C/C(=O)c2cc3cccc(OC)c3oc2=O)c1 | 6.3% | 7.3%
CCOc1ccc(CNC(=O)Cc2ccc(NC(=O)N3CCCCc4ccccc43)cc2)cc1OC | 37.5%[activator] | -15.5%
Cn1c(=O)c2c(ncn2Cc2csc(C(C)(C)C)n2)n(C)c1=O | ? | ?
CCCn1cc(SCC(=O)Nc2cccc(C)c2)c2ccccc21 | 84.7%[activator] | 11.8%
O=C(NC(c1ccccc1)c1ccccc1)C(=O)c1c[nH]c2ccccc12 | 3.9% | -5.7%
Cc1cc(C)cc(NC(=O)NCc2c(-n3cccc3)sc3c2CCCC3)c1 | -13.8% | -12.0%
Cc1ccc(NC(=O)c2cccc(NC(=O)NC(C)C)c2)cc1Cl | 7.3% | 58.0%[activator]
Cc1cc(C)c(NC(=O)CSc2nc3ccccc3nc2N2CCCCC2)c(C)c1 | -28.2% | -4.1%
CCOC(=O)NC(Nc1ccccc1)(C(=O)OCC)C(F)(F)F (stereo not given) | 149.2%[activator] | 84.8%[activator]
CC(C)C(=O)Nc1nc2c(s1)CC(C(C)(C)C)CC2 (stereo not given) | 17.3% | 229.2%[activator]
COCCNC(=O)CCn1c(=O)c2cc(OC)c(OC)cc2n(CC(=O)Nc2ccccc2OC)c1=O | ? | ?
CN(Cc1ccccc1F)S(=O)(=O)c1cccc2nsnc12 | 56.5%[activator] | 7.5%

Random excerpt: four compounds from above.
canonical_smiles | 2A Renilla | StopGo FLuc
Cc1cc(C)cc(NC(=O)NCc2c(-n3cccc3)sc3c2CCCC3)c1 | -13.8% | -12.0%
O=C(Nc1cccc2ncccc12)C12CC3CC(CC(C3)C1)C2 | -9.3% | -2.7%
Cc1cccc2c(C(=O)Nc3ccc(C(=O)N(C)C)cc3)cc(C3CC3)nc12 | -32.0% | -20.9%
COc1ccc(C)cc1N(CC(=O)N1CCC(C)CC1)S(=O)(=O)c1ccc(C)cc1 | 170.2%[activator] | -13.1%

(continued)
canonical_smiles | 2A Renilla | StopGo FLuc
CCOC(=O)CN(CCOC)C(=O)CCCc1ccccc1 | -4.1% | ?
Cc1c(C(=O)N2CCOCC2)oc2c1-c1nn(CC(=O)NCc3ccccc3)cc1CC2 | -9.2% | -1.4%
CCc1ccc2oc(-c3cccc(NC(=O)C(C)(C)Oc4ccc(Br)cc4)c3)nc2c1 | -3.7% | 31.1%[activator]
CCCCc1cc(=O)oc2cc(OC(C)C(=O)NCCCO)ccc12 (stereo not given) | -11.4% | -9.4%
CCCOc1ccc(NC(=O)c2ccc(C)cc2)c2cccnc12 | 1.9% | 0.0%
O=C(CSc1ccccc1)CSc1ccccc1 | 12.2% | 45.7%[activator]
CC1=C/C(=N\Nc2nncc3ccccc23)CC1 | 11.6% | 0.0%
CCCC(=O)N1c2ncnn2C2(CCCCC2)[C@@H]2CCCC[C@@H]21 | 165.6%[activator] | -10.0%
COc1ccc(NC(=O)c2cnn3c2NC(C(=O)O)=CC3/C=C/c2ccccc2)cc1Cl (stereo not given) | 0.6% | -7.0%
O=S(=O)(c1ccc2oc3ccc(S(=O)(=O)N4CCOCC4)cc3c2c1)N1CCOCC1 | 24.5% | 8.2%
Cc1ccc(C)c(OCC(O)Cn2nc(C(N)=O)c3ccccc3c2=O)c1C (stereo not given) | 8.9% | -6.4%
O=C(OCc1cc(=O)oc2cc(O)ccc12)c1ccccc1F | -6.8% | 0.0%
O=C(O)CCc1ccc(-c2ccccc2)n1NC(=O)c1ccc(Cl)cc1 | -13.7% | -22.4%
Cc1ccccc1CN1C(=O)C2(c3ccccc31)N(c1ccccc1)C(=O)CS2(=O)=O (stereo not given) | -7.5% | -14.2%
COc1ccc(C2=C(C)C(Nc3cc(Cl)c(OC)cc3OC)=NS2(=O)=O)cc1 | -7.9% | -3.9%
CC(C)C1CCC(C)C(C2(C#N)C(N)=C(C=O)CC2(C#N)C#N)C1=O (stereo not given) | 3.7% | 10.3%
O=C(Nc1ccc(F)cc1F)c1nc2ccccc2nc1N1CCCCC1 | 6.9% | 11.7%
C[C@@]12CCC[C@H]1[C@@H]1CC[C@H]3C[C@@H](O)CC[C@]3(C)[C@H]1CC2 | -5.1% | -16.5%
